Mtb hypoxia rep – inhibitors of hypoxia-regulated fluorescent reporter in Mycobacterium tuberculosis. M. tuberculosis hypoxia-regulated fluorescent reporter, fluorescence. AID 1159583. fluorescence inhibition, % (test concentration not listed). actives 0.1% (n = 300,000);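 active = 35 to 45% if threefold the growth effect, above 45% if 1.5-fold the growth effect; inactive = the rest, general growth blockers included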;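 note: wells of about 50 µL received 100 nL stock; 0% = vehicle wells and 100% = reference inhibitor wells; whole bacteria with a GFP reporter of the hypoxia response; strong numbers were not always called active; many hits fall short of the cut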
BJeLR viability – kills HRASV12-expressing BJeLR cells. actives 0.17% (n = 300,000). inhibition, % (concentration not given with the values). AID 1554. BJeLR (HRASV12) viability, CellTiter-Glo ATP luminescence, 48 h; reference of the scale not given here;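 active = replicate mean above 50%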;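 note: 50 nL library stock added to about 25 µL; numbers are from one replicate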
Sa ugtP lethal – compounds lethal to S. aureus RN4220 ugtP deletion mutant | OD600 growth, 16 h; some inactives read as strong as hits | growth inhibition, % (no concentration beside the values) | actives 0.54% (n = 330,000) | AID 1259309;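 active = z-score under -3 and OD600 up to 0.15 on both plates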;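 note: plate controls were untreated wells for no effect and antibiotic for full effect; wells of about 80 µL received 100 nL stock; the first replicate is given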
Autofluor counter – flagged as autofluorescent in microsphere protease counterscreen | actives 3.1% (n = 360,000) | fluorescence intensity (test concentration not listed) | compound autofluorescence counterscreen, microsphere flow cytometry; stronger effect = higher value;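 active = at least 3 SD above the mean of all compounds, about 16000 in these data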;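 note: 100 nL of 1 mM stock went into each well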
Sa RN4220 lethal – S. aureus RN4220 growth inhibition | inhibition, % (test concentration not listed) | OD600, 16 h | actives 0.33% (n = 330,000);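 active = z-score of -3 or lower and OD600 up to 0.18 on both plates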;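 note: plate controls were untreated cells for no effect and reference antibiotic for full effect; stock transfer was 100 nL into about 80 µL; one replicate is shown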
PrP UTR inh – suppresses PrP 5' UTR mRNA reporter expression; inhibition, % (test concentration not listed); AID 488862; cell-based PrP 5' UTR mRNA reporter, plate reader; actives 0.35% (n = 340,000);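 active = every replicate at 50% or more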;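 note: 0 = median of the neutral control wells; tested in H4 reporter cells; numbers are from one replicate; inactives centre near -14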
Mtb hypoxia rep growth – recorded beside Mtb hypoxia rep, whose call it bears; growth inhibition, %; measured here: M. tuberculosis growth (absorbance);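 0% = vehicle and 100% = reference antibiotic; read after six days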
* hit, by the source's call; / = no result given. This is a random part of the collection. About 4% of those tested had a hit in this group.

SMILES | Mtb hypoxia rep | Mtb hypoxia rep growth | BJeLR viability | Sa ugtP lethal | Autofluor counter | Sa RN4220 lethal | PrP UTR inh
CCCN(CCC)C(=O)CCSCCC(=O)N(CCC)CCC | 11.3 | 0.4 | -6.3 | 0.1 | 2022 | 5.8 | -19.6
O=S(=O)(c1ccc(Cl)cc1)N1CCCC1c1nc(-c2cccc(Cl)c2)no1 (configuration not stated) | -6.5 | -1.5 | -1.7 | -14.3 | 4414 | 10.9 | -6.2
Oc1ccc[n+](/C=C\c2ccccc2)c1 | / | / | 2.1 | / | 4178 | / | 1.8
O=C1CNC(=S)N1CCc1ccc(Cl)cc1 | -1.3 | -3.5 | -10.0 | -0.4 | 3811 | 0.2 | -11.5
COc1ccccc1NS(=O)(=O)c1cc(NC(=O)COc2ccccc2)ccc1N1CCOCC1 | 1.5 | 8.4 | / | -6.0 | 3767 | -1.2 | -17.5
COC(=O)c1cc(C(=O)OCC(=O)NNC(=O)c2cccs2)cc([N+](=O)[O-])c1 | 10.8 | 2.8 | 3.3 | 5.0 | 6662 | 1.9 | -19.4
CC(=O)c1cccc(NC(=O)COC(=O)c2ccccn2)c1 | 2.4 | 10.6 | 0.5 | 6.8 | 3605 | 3.2 | -17.7
COc1ccc(OC)c(C(=O)/C=C/c2ccccc2C(F)(F)F)c1 | 2.9 | -1.5 | -3.6 | 21.3 | 4411 | -0.1 | -27.4
COc1ccc(Cn2c(=O)n(Cc3ccco3)c(=N)c3c4c(sc32)COC(C)(C)C4)cc1 | / | / | / | 12.1 | 5303 | -1.5 | -2.0
O=C(CCCN1C(=O)/C(=C/c2ccccc2)SC1=S)Nc1ccc(C(=O)O)c(O)c1 | / | / | 1.7 | / | 5494 | / | -30.9
COc1ccc(Nc2nnc(SCC3CCCO3)s2)cc1 (configuration not stated) | 10.0 | 16.8 | 1.5 | 5.2 | 3793 | 5.3 | -24.6
COc1ccc(C2=NN(C(=O)CSc3nnc(-c4ccccc4F)o3)C(c3ccco3)C2)cc1 (configuration not stated) | 9.4 | 8.7 | -8.2 | -22.9 | 2618 | 5.3 | -4.0
COc1ccc(-n2c(C=C3C(=O)Nc4ccccc43)nc3ccccc3c2=O)cc1 | 1.7 | 2.6 | / | -7.2 | / | 0.9 | /
CCOc1ccc2nc(N3C(=O)CNC3=S)sc2c1 | 13.5 | 3.5 | 3.6 | 51.3 | 6088 | -3.2 | -21.4
CN(C)CCNc1ncnc2c1sc1nc(-c3ccccc3)c3c(c12)CCCC3 | / | / | -9.8 | -6.6 | 5481 | -2.4 | 21.4
COc1cc2[nH]c(C(=O)NCC3CCCO3)cc2c(OC)c1OC (configuration not stated) | 0.9 | 3.7 | 10.9 | 2.8 | 3597 | 4.6 | -15.2
Cc1cccc(N(CC(=O)NCCSc2nc3ccccc3s2)S(=O)(=O)c2ccccc2)c1 | 16.4 | 5.6 | 0.0 | 1.9 | / | 5.0 | /
COc1cccc(CN2CC(C(=O)N(C)CCc3ccccc3)CCC2=O)c1 (configuration not stated) | 3.3 | -0.4 | -11.6 | 3.1 | 5225 | 3.2 | -9.6
O=S(=O)(CC(O)CS(=O)(=O)c1ccc(Cl)cc1)c1ccccc1 (configuration not stated) | 6.0 | 16.4 | -3.5 | 3.3 | 5493 | -0.4 | -5.9
Cc1c(Cl)cccc1NC(=O)c1nc(C)n(-c2cc(OC(C)C)c(Cl)cc2Cl)n1 | 12.9 | 1.4 | -1.9 | -7.8 | 10191 | -4.6 | -24.6
CN1CCN(CCC=C2c3ccccc3Sc3ccc(S(=O)(=O)N(C)C)cc32)CC1 | 12.3 | 14.2 | / | -9.5 | 5620 | 1.1 | 8.7
CCN(CC)CCNC(=O)c1sc2ncn(CC(=O)Nc3ccc(C)c(Cl)c3)c(=O)c2c1C | 0.3 | -1.1 | 6.1 | -3.0 | 2727 | -0.3 | -19.2
Nc1c(Cl)cc(-c2[nH]c3cc(C(=O)NCCO)ccc3c(=O)c2O)cc1Cl | 15.3 | 9.6 | 9.4 | 1.9 | 2684 | 9.2 | -26.4
COc1ccc(/C(N)=N/OC(=O)CC2CCCCC2)cc1 | / | / | -3.8 | / | 6391 | / | -19.3
CCc1n[nH]c(=S)n1N=Cc1ccc(NC(C)=O)cc1 | -2.5 | 7.1 | / | 2.2 | / | 0.5 | /

One compound at a time, as listed above. Screens in order: Mtb hypoxia rep | Mtb hypoxia rep growth | BJeLR viability | Sa ugtP lethal | Autofluor counter | Sa RN4220 lethal | PrP UTR inh
Entry for O=S(=O)(CC(O)CS(=O)(=O)c1ccc(Cl)cc1)c1ccccc1 (configuration not stated) → 6.0 | 16.4 | -3.5 | 3.3 | 5493 | -0.4 | -5.9
Entry for Nc1c(Cl)cc(-c2[nH]c3cc(C(=O)NCCO)ccc3c(=O)c2O)cc1Cl → 15.3 | 9.6 | 9.4 | 1.9 | 2684 | 9.2 | -26.4
Entry for COc1ccc(Nc2nnc(SCC3CCCO3)s2)cc1 (configuration not stated) → 10.0 | 16.8 | 1.5 | 5.2 | 3793 | 5.3 | -24.6
Entry for COc1cccc(CN2CC(C(=O)N(C)CCc3ccccc3)CCC2=O)c1 (configuration not stated) → 3.3 | -0.4 | -11.6 | 3.1 | 5225 | 3.2 | -9.6
Entry for Oc1ccc[n+](/C=C\c2ccccc2)c1 → / | / | 2.1 | / | 4178 | / | 1.8

The list continues.
SMILES | Mtb hypoxia rep | Mtb hypoxia rep growth | BJeLR viability | Sa ugtP lethal | Autofluor counter | Sa RN4220 lethal | PrP UTR inh
CCn1nc(NS(=O)(=O)c2ccc(NC(C)=O)cc2)c2cc3cc(C)ccc3nc21 | -2.7 | 5.2 | 0.7 | -3.4 | 6059 | -1.3 | 2.1
Cc1cccc(NC(=O)C2NC(=O)CC2c2ccccc2)c1C (configuration not stated) | / | / | -1.3 | -14.9 | 4460 | 2.0 | -13.0
COc1cc(NC(=O)c2ccc3c(c2)OCCO3)ccc1NC(=O)c1ccco1 | -2.8 | 0.9 | 1.0 | 8.1 | 4588 | 8.6 | -2.6
CCOC(=O)N1CCC(NS(=O)(=O)c2ccc(C)cc2)CC1 | -15.9 | -2.2 | 0.6 | -6.1 | 6332 | 2.0 | -17.8
COc1ccc(NC(=O)Nc2ccc3c(c2)C(=O)N(C(C)CO)CC(C)C(CN(C)S(=O)(=O)c2ccccc2)O3)cc1 (configuration not stated) | 9.6 | 7.7 | / | 5.2 | / | 4.0 | /
O=C(O)c1ccnc(C(=O)O)c1 | -3.5 | 3.2 | 3.4 | 5.5 | 15824 | 2.3 | -2.7
COc1ccc2cc(CCNC(=O)c3cccc([N+](=O)[O-])c3)c(=O)[nH]c2c1 | 5.3 | -3.2 | 2.4 | 8.0 | 2248 | 0.0 | -16.7
CC(=O)Nc1c(Cl)cc2c(c1Cl)Cc1cc(N)ccc1-2 | -1.6 | 6.6 | / | -5.2 | 3841 | 3.9 | 0.6
O=C(NCC(c1ccco1)N1CCc2ccccc21)c1ccccc1Cl (configuration not stated) | 6.0 | 2.4 | -2.0 | 3.7 | 5530 | 9.6 | -20.4
O=C(O)c1cccc(S(=O)(=O)Nc2ccccc2Cl)c1 | -3.1 | 2.6 | -14.6 | -2.0 | 3121 | 6.4 | -3.4
COc1ccc(CCNC(=O)CCc2ccccc2O)cc1OC | 4.6 | 1.5 | / | 2.0 | / | 1.9 | -17.8
O=C(COc1ccc(S(=O)(=O)N2CCCC2)cc1Cl)NCc1ccc2c(c1)OCO2 | / | / | 4.7 | 11.5 | 2637 | -8.3 | -32.5
O=C(N/N=C/c1c[nH]c2ccccc12)c1cccc([N+](=O)[O-])c1 | / | / | 2.2 | / | 2555 | / | -26.3
CCC1(c2ccccc2)NC(=O)N(CC(=O)NCc2ccc(F)cc2)C1=O (configuration not stated) | 3.5 | -1.8 | -1.8 | 5.2 | 3977 | 1.0 | -21.6
O=C(NNS(=O)(=O)c1ccc(Cl)cc1)c1cccc(S(=O)(=O)N2CCOCC2)c1 | 4.3 | -2.2 | 12.6 | 1.8 | 4220 | 3.5 | -29.8
CC(C)NC(=O)Nc1cccs1 | 9.8 | 10.1 | 1.2 | -1.2 | 2919 | -6.2 | -33.2
Cc1ccc(OC(C)C(=O)N/N=C/c2ccccn2)cc1 (configuration not stated) | / | / | 1.0 | / | 1899 | / | -18.2
COc1ccccc1C(=O)N1CCN(Cc2ccc3c(c2)OCO3)CC1 | 6.9 | 8.0 | -6.9 | 5.9 | 3067 | -2.3 | -4.6
Cc1cccc(OCc2nnc(SCCC(=O)O)n2-c2ccccc2)c1 | -0.8 | -0.5 | -19.9 | 9.7 | 3177 | 1.2 | -15.7
CCOC(=O)Cn1nc(C)c(NC(=O)COc2ccc(OC)cc2)c1C | 15.2 | 6.9 | 9.9 | -0.4 | 5218 | 5.5 | -15.9
O=C(NNC(=S)Nc1ccc(F)cc1)c1ccccc1OC(F)F | 2.0 | 6.8 | 7.5 | -6.0 | 10265 | -2.0 | -47.9
CC(=O)Nc1ccc(S(=O)(=O)NCC(=O)OCC(=O)N2CCc3ccccc32)cc1 | / | / | 1.6 | 5.2 | 4713 | 4.2 | -16.1
CCCOC(=S)NC(=NS(=O)(=O)c1ccccc1)c1ccccc1 | -6.2 | -9.4 | / | 7.6 | / | 3.1 | /
O=C(Nc1cccnc1Cl)c1ccc(=O)oc1 | 9.2 | 11.9 | -8.3 | 2.2 | 3925 | 2.3 | -11.5
COCCN1CCN(C(=O)c2cc(COc3ccc(F)cc3F)on2)CC1 | -1.4 | -5.6 | -2.6 | 12.2 | / | 1.8 | -11.3

More structures follow.
SMILES | Mtb hypoxia rep | Mtb hypoxia rep growth | BJeLR viability | Sa ugtP lethal | Autofluor counter | Sa RN4220 lethal | PrP UTR inh
O=S(=O)(c1ccc(F)cc1)N1CCc2ccccc2C1 | 15.7 | 10.4 | -14.1 | 12.0 | 3825 | 2.9 | -22.4
CCn1nnnc1SCC(=O)Nc1nc2ccc(OC)cc2s1 | / | / | -3.6 | 5.8 | 4728 | 1.8 | -52.7
Nc1ccc2c(c1)C(=O)c1ccc(Cl)cc1-2 | 4.3 | 9.4 | / | 2.7 | 3385 | 1.2 | -5.3
Cc1c(O)ccc2c3c(c(=O)oc12)CCCC3 | / | / | / | -1.0 | 5884 | 7.7 | -25.0
O=C(COC(=O)c1ncc(Cl)c(Cl)c1Cl)NCc1cccs1 | 2.9 | -3.0 | -16.7 | -1.4 | 5701 | 1.8 | -15.5
CC(C=Cc1ccccc1)=NNS(=O)(=O)c1ccc([N+](=O)[O-])cc1 | 18.4 | 11.2 | / | 11.1 | 3968 | 0.6 | -28.8
C=C1C(=O)O[C@H]2[C@H]1[C@@H](O)CC(=C)[C@@H]1CC(=O)[C@@H](C)[C@H]21 | 19.7 | 3.7 | 0.5 | 5.9 | 3792 | 1.2 | -11.7
O=C(CNC(=O)c1ccc(Br)o1)NNC(=O)COc1ccccc1Cl | 2.3 | -4.1 | / | 0.0 | 3809 | 2.0 | -13.0
O=C(Nc1cccs1)Nc1ccc(F)cc1F | 1.3 | 10.6 | 16.8 | 3.6 | 2181 | 4.3 | -66.9
CC1CCCC(C)N1C(=O)COC(=O)CNC(=O)c1ccccc1F (configuration not stated) | 7.3 | 9.9 | / | -0.7 | / | -1.3 | -25.4
CN(C)S(=O)(=O)c1cc(NC(=O)COC(=O)CC2CC3CCC2C3)ccc1Cl (configuration not stated) | 1.3 | 0.2 | / | -9.8 | 4541 | -0.3 | -11.9
COc1cc(/C=N/NC(=O)CN(CCc2ccccc2)S(=O)(=O)c2ccc(NC(C)=O)cc2)cc(OC)c1OC | / | / | -4.8 | / | 1959 | / | -18.5
CC(=O)c1cccc(-c2ccc3c(=O)[nH]c(Nc4ccccc4)cc3c2)c1 | 6.0 | 11.6 | 14.8 | -17.4 | 4315 | -2.7 | -12.5
Cc1cc(S(N)(=O)=O)ccc1N=Cc1c(O)n(-c2ccccc2)c(=O)[nH]c1=O | 8.2 | 4.6 | -2.9 | -4.7 | 2190 | 8.6 | -13.7
COc1ccccc1NS(=O)(=O)c1ccc(NN=C(C)C(C)C)c([N+](=O)[O-])c1 | -0.3 | 6.2 | / | -9.8 | / | 3.6 | /
CNC(=O)c1c(NC(=O)c2ccc(S(=O)(=O)N(C)c3ccccc3)cc2)sc2c1CCN(C(C)C)C2 | -3.1 | 9.2 | 1.0 | -4.7 | / | 1.1 | /
CCn1cc(Br)c(C(=O)NC(C)c2ccccc2)n1 (configuration not stated) | 13.3 | 0.8 | -4.4 | 3.6 | 11321 | 4.9 | -21.8
CCOC(=O)CCNC(=O)N1CCCC(N(C)CCc2ccccc2)C1 (configuration not stated) | 12.0 | 4.7 | -6.0 | 9.1 | 3395 | 5.0 | -18.5

Assay outcomes: PubChem, several laboratories
